# Assay outcomes deposited in PubChem by Broad Institute.
# YB-1 expression = YB-1 expression inhibition. U2OS, qRT-PCR YB-1 vs CDIP delta delta Cp, 16 h; active compounds read high; zero = DMSO, each unit about twofold. delta delta Cp (YB-1 minus CDIP) (no concentration beside the values). actives 0.37% (n = 30,000). AID 434959;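 active = delta delta Cp rounded down to an integer at or above 3, about 3 SD of DMSO wells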;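 note: higher means less YB-1 transcript or more CDIP transcript relative to DMSO; stock transfer was 100 nL into about 100 µL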
# PD-1 reversal = reversal of PD-1 mediated T-cell inhibition. primary human CD4 T cells, PD-L1 beads, CellTiter-Glo 96 h. activation, % (test concentration not listed). 29,000 tested, under 10 active. AID 2316;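 active = replicate mean of 50% or more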;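 note: 0% = median vehicle wells and 100% = positive control; 100 nL library stock added to about 50 µL; numbers are from one replicate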
# Shh pathway inh = blocks Sonic Hedgehog signaling | Shh-LIGHT2 Gli-luciferase reporter, 30 h | inhibition, % (no concentration beside the values) | actives 2.1% (n = 22,000) | AID 2313;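 active = replicate mean of 65% or more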;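 note: pathway switched on by Shh-conditioned medium diluted 1 in 25 in low serum; 100 nL library stock added to about 40 µL; 0% = median of neutral wells and 100% = positive control level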
# MITF inhib = MITF inhibition; TRPM1 promoter luciferase, luminescence, 24 h; AID 2240; actives 0.28% (n = 37,000); inhibition, % (test concentration not listed);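 active = most replicates at 85% or more, or half of them and the mean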;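 note: human melanocyte line stably carrying TRPM1 promoter luciferase reporter; 0% = vehicle wells and 100% = a positive control; the first replicate is given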
# Starred values were filed as active, the others as inactive; . = no result given.
# Abbreviations – A = YB-1 expression; B = PD-1 reversal; C = Shh pathway inh; D = MITF inhib
1) CCC(=O)O[C@]1(C(=O)SCF)[C@H](C)C[C@H]2[C@@H]3C[C@H](F)C4=CC(=O)C=C[C@]4(C)[C@@]3(F)[C@@H](O)C[C@@]21C
  A: 0.236	B: .	C: 43.4	D: -36.0
2) CCCCCC(=O)O[C@]1(C(C)=O)CCC2C3CCC4=CC(=O)CC[C@]4(C)C3CC[C@@]21C (some centres not stated)
  A: 0.366	B: .	C: 96.4*	D: 13.1
3) Cc1cccc(Nc2cc(Cl)nc(SCC(=O)O)n2)c1C
  A: 0.125	B: 2.7	C: 19.1	D: 4.7
4) CCOC(=O)NNc1nncc2ccccc12
  A: 0.668	B: 2.8	C: -33.0	D: 2.0
5) COc1c(O)cc2c(c1O)[C@H]1O[C@H](CO)[C@@H](O)[C@H](O)[C@@H]1OC2=O
  A: -0.246	B: .	C: -0.1	D: -9.8
6) CCn1cc(C(=O)O)c(=O)c2cc(F)c(N3CCNCC3)nc21
  A: 0.163	B: .	C: 8.9	D: -9.6
7) Cc1cc(C)cc(OCC2CNC(=O)O2)c1 (configuration not stated)
  A: -0.266	B: .	C: -12.9	D: 4.3
8) COc1cc([C@H]2Oc3cc([C@H]4Oc5cc(O)cc(O)c5C(=O)[C@@H]4O)ccc3O[C@@H]2CO)ccc1O
  A: -0.0281	B: .	C: -23.6	D: 2.3
9) Cn1c(=O)c2c(ncn2CCO)n(C)c1=O
  A: 0.563	B: 0.4	C: 6.1	D: -3.8
10) O=c1cc(-c2ccc(O)cc2)oc2cc(O[C@@H]3O[C@H](CO)[C@@H](O)[C@H](O)[C@H]3O[C@@H]3OC[C@](O)(CO)[C@H]3O)cc(O)c12
  A: 0.343	B: .	C: -59.3	D: 4.1

# Compounds listed so far with fluorine, in the order listed:
# Abbreviations – A = YB-1 expression; B = PD-1 reversal; C = Shh pathway inh; D = MITF inhib
1) CCC(=O)O[C@]1(C(=O)SCF)[C@H](C)C[C@H]2[C@@H]3C[C@H](F)C4=CC(=O)C=C[C@]4(C)[C@@]3(F)[C@@H](O)C[C@@]21C
  A: 0.236	B: .	C: 43.4	D: -36.0
6) CCn1cc(C(=O)O)c(=O)c2cc(F)c(N3CCNCC3)nc21
  A: 0.163	B: .	C: 8.9	D: -9.6

# Remaining list, next part
# Abbreviations – A = YB-1 expression; B = PD-1 reversal; C = Shh pathway inh; D = MITF inhib
11) Cc1cccc(C)c1NC(=O)C1CCCCN1C (configuration not stated)
  A: -0.355	B: .	C: -1.4	D: -18.1
12) CCCCCCc1ccc(O)cc1O
  A: -0.142	B: .	C: -10.8	D: 7.1
13) NC(N)=NC(=O)Cc1c(Cl)cccc1Cl
  A: 0.424	B: .	C: 25.0	D: 9.2
14) C[C@H]1[C@H](C)CC[C@]2(C(=O)O[C@@H]3O[C@H](COC4O[C@H](CO)[C@@H](OC5O[C@@H](C)[C@H](O)[C@@H](O)[C@H]5O)[C@H](O)[C@H]4O)[C@@H](O)[C@H](O)[C@H]3O)CC[C@]3(C)C(=CC[C@@H]4[C@@]5(C)C[C@@H](O)[C@H](O)[C@@](C)(CO)C5CC[C@]43C)[C@H]12 (some centres not stated)
  A: -0.0784	B: .	C: -28.7	D: -8.1
15) O=C1Cc2c([nH]c3ccc([N+](=O)[O-])cc23)-c2ccccc2N1
  A: 0.653	B: -13.7	C: -422.7	D: -1.6

# Reformatted bar-delimited: 4 of the compounds above
no. | compound | YB-1 expression | PD-1 reversal | Shh pathway inh | MITF inhib
6 | CCn1cc(C(=O)O)c(=O)c2cc(F)c(N3CCNCC3)nc21 | 0.163 | . | 8.9 | -9.6
7 | Cc1cc(C)cc(OCC2CNC(=O)O2)c1 (configuration not stated) | -0.266 | . | -12.9 | 4.3
8 | COc1cc([C@H]2Oc3cc([C@H]4Oc5cc(O)cc(O)c5C(=O)[C@@H]4O)ccc3O[C@@H]2CO)ccc1O | -0.0281 | . | -23.6 | 2.3
9 | Cn1c(=O)c2c(ncn2CCO)n(C)c1=O | 0.563 | 0.4 | 6.1 | -3.8

# This is a subset (hit frequency here may not be typical).
